PINK1 expr mod – modulators of PINK1 expression. PINK1 immunofluorescence, high-content cytometry, 24 h. Potency, µM (highest dose often 76.6 µM), inactives show at the highest dose activation (PINK1 increase), usual class: activators. 410,000 tested, 0.2% active. AID 624263; active = well fitted activation curve with a large enough effect; inconclusive = small, poorly fitted or top-dose-only effect; inactive = flat fitted curve, though single readings scatter; cell line not stated here;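 further: potency means the concentration at half of the fitted maximal effect; % of control where 0% means no effect; nearly all actives have a fitted effect of over 65% in size; a mitochondrial uncoupler was the plate control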
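Decision-based qHTS: stable cells, 24 h exposure to five compound concentrations, CCCP as control. Fixed cells stained for PINK1 plus nuclear, mitochondrial and cell markers, cytometer read.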
ClpP mod – qHTS Assay for Activators of ClpP; ATP-dependent Clp protease proteolytic subunit (Bacillus subtilis (strain 168)), P80244; purified B. subtilis ClpP, FRET peptide cleavage, 20 min; Potency, µM (top dose mostly 57.5 µM), inactives show at the top dose activity change, negative = active; 340,000 tested, 1.9% active; active = well fitted falling curve with a large enough effect; inconclusive = small, poorly fitted or top-dose-only effect; inactive = no such curve, though single readings can be large or run the other way; further: potency means the concentration at half of the fitted maximal effect; the source files actives as falling curves though it sought activators and does not explain the sign; nearly all actives have a fitted effect of over 65% in size; many hits overshoot -100%
Target sequence (P80244 whole entry, looked up): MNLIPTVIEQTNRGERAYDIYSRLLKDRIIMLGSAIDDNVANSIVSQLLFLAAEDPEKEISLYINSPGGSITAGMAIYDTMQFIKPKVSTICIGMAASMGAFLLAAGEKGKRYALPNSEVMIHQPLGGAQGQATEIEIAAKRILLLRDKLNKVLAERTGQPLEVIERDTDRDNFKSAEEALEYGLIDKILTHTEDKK
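ClpP 10 microg/mL final, pH 8 Tris/KCl buffer with BSA, glycerol, Tween-20; compound pinned in; FRET-FV substrate; RT 20 min; Ex320/Em430; ΔFRET vs ADEP 5.8 microM, DMSO, no enzyme.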
TRPV1 potentiator – human TRPV1 potentiation. Q8NER1. TRPV1-expressing cells, Fluo-8 calcium influx, capsaicin EC20 potentiation; host cell line not named in the record; control for the full effect not named in the record. potentiation, % at 8.33 µM. 320,000 tested, 0.02% active. AID 540277; active means potentiation above 80%; inconclusive means 30% to 80%; inactive means below 30%; further: 0% is about no effect
Target sequence (Q8NER1 whole entry, looked up): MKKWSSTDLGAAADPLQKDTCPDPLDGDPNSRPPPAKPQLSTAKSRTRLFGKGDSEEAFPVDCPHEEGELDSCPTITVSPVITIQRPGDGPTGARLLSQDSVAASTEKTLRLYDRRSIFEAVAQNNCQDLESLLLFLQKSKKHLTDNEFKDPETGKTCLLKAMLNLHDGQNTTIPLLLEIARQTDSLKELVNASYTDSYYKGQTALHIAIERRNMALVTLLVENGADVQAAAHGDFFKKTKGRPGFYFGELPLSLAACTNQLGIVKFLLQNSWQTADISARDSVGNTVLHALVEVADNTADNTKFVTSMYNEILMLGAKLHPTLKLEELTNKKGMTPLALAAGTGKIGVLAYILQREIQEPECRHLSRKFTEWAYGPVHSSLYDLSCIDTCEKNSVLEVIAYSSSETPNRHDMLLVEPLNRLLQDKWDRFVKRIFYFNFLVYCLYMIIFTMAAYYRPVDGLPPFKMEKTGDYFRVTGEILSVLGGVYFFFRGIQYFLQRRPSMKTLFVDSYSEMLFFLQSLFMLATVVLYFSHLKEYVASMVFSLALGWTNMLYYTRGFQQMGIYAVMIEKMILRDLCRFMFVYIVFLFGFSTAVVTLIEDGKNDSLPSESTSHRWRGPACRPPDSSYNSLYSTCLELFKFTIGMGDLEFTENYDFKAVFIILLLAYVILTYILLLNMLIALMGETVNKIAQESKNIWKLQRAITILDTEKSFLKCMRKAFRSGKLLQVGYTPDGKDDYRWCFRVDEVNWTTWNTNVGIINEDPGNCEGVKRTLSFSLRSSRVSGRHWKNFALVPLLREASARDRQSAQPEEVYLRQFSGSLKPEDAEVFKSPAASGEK
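Fluo-8 calcium influx in TRPV1-expressing cells, kinetic read (ex 480/em 520 nm). Compound added and read 3 min for agonist activity, followed by capsaicin at EC20 final and 2 min further read for enhancement.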
TRPML1 agonist – activates the human TRPML1 channel. Q9GZU1. TRPML1-expressing cells, Ca2+ dye fluorescence, FDSS; host cell line not named in the record; reference of the full effect not given here. activation, % (no concentration beside the values). 410,000 tested, 0.12% active; in the data active = activation above about 50%; inconclusive = about 30% to 50%; inactive = below about 30%; further: 0% is about no effect; the text of the record puts the active cut at 80%
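Kinetic FDSS Ca2+ read in Tet-induced TRPML1-DL cells (ABD Ca8 dye plus quencher, 45-90 min RT loading): baseline, then compound, then 110 s agonist window; EC80 agonist 54-4 at 4uM final added afterwards for a 110 s antagonist window.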
Sfp inh – inhibitors of Bacillus subtilis Sfp phosphopantetheinyl transferase | Q9F4F7 | Biochemical Sfp PPTase activity, qHTS | Potency, µM, inactives show max response, negative = inhibition, usual class: inhibitors | 310,000 tested, 3.5% active; active means well fitted inhibition curve with a large enough effect; inconclusive means small, poorly fitted or top-dose-only effect, or another doubt; inactive means no such curve, though single readings can be large or run the other way;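 further: the enzyme is Sfp with the accession as filed and its product quenches rhodamine fluorescence; potency means the concentration at half of the fitted maximal effect; 0% = enzyme reaction without inhibitor and -100% = no enzyme wells; top concentration of the series not given in the record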
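After 15 min at room temperature with compound, 15 nM Sfp received 5 uM rhodamine-CoA plus 12.5 uM BHQ-2-ybbR (50 mM Hepes pH 7.6, 10 mM MgCl2). Rate came from the fluorescence difference over 30 min, ex 525/em 598 nm.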
Menin-MLL FL inh – displaces fluorescein MLL peptide from human menin | 290,000 tested, under 10 active | Fluorescence polarization, fluorescein-MLL peptide displacement from menin | FP activity change, % at 61.4 µM; inconclusive = falling polarisation curve, or a change in total fluorescence; inactive = total fluorescence flat and polarisation flat or rising; no compound was filed as active; the % refers to the polarisation; negative = inhibition;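 further: % of control where 0% means no effect; inhibitors lower the polarisation; unlabelled MLL peptide was the positive control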
TRPML1 blocker – human mucolipin-1 channel inhibition; TRPML1-inducible cells, Ca2+ dye fluorescence, FDSS; active compounds read low; inhibition of EC80 agonist-evoked calcium signal; 390,000 tested, 0.02% active; activity change, negative = inhibition, % (concentration not given with the values); Q9GZU1; in the data active means activity change below about -50%; inconclusive means about -30% to -50%; inactive means above about -30%;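 further: stimulus is agonist 54-4 at its EC80 concentration; on the % scale 0 is the no-effect control and ±100 the full control effect; the text of the record puts the active cut at -80%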
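TRPML1-DL cells, Tet-induced overnight (~16 h, 37 °C) at 1,500 cells/well, were loaded with Ca8 no-wash dye plus quencher for 45-90 min at room temperature. Compounds were pinned during FDSS kinetic reading; agonist 54-4 at EC80 (4 uM final) then added.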
Active calls of the source: *; ? = inconclusive; . = no result given; [ ] = remark or other dose. Not a hit list. Share with any hit: about 4.4%.

Start of the data: the first 14 records (preview)
SMILES	PINK1 expr mod	ClpP mod	TRPV1 potentiator	TRPML1 agonist	Sfp inh	Menin-MLL FL inh	TRPML1 blocker
CC(=O)Nc1ccc(C2=CC(=O)CC(C)(C)C2)cc1	-0.3%	-26%	2	0.1	.	.	2
CCOC(=O)c1c(NC(=O)C2(C)Cc3ccccc3C(=O)O2)sc2c1CCCC2 (centres undefined)	3.0%	?	9	0.1	35µM*	-3.4	-10
O=C(NCc1ccccc1)NC1(C(=O)Nc2ccc3c(c2)OCCO3)CCCCC1	-1.8%[38.3 µM]	-2.0%	7	-0.3	6%	-6.5	0
Cc1ccc(C(=O)Oc2ccccc2N2CCOCC2)cc1	2.5%	0.4%	17	-0.2	6%	0.7	17
Cc1ccc(-c2noc(CSc3nnc(Cc4cccs4)n3-c3ccccc3)n2)cc1	15%	-0.1%	16	1.0	-5%	-1.8	0
FC(F)Oc1ccc(/C=N/n2c(Cc3ccc(Br)cc3)n[nH]c2=S)cc1	2.5%	.	-3	0.9	18µM*	-0.6	18
CC(=O)Oc1ccc(/C=C2\C=C(c3ccc(C)cc3)OC2=O)cc1	-3.0%	.	13	0.3	20%	4.5	34
O=C(Nc1cc(S(=O)(=O)N2CCCCC2)ccc1Cl)c1ccncc1	-0.3%	0.3%	-8	-0.2	.	.	-2
Cc1ccc(-c2noc(CNS(=O)(=O)c3ccc(F)cc3)n2)cc1	6.4%	1.5%	.	0.2	.	.	18
O=C(CSc1n[nH]c(-c2ccccc2)n1)N1CCOCC1	1.5%	.	3	0.0	2%	-0.2	-1
O=C(Cc1c(C(=O)O)[nH]c2ccc(Cl)cc12)Nc1ccc2c(c1)OCCO2	8.2%	-3.1%	?	-1.4	15%	1.3	-6
O=S(=O)(c1ccc(F)cc1)N1CCN(S(=O)(=O)c2cc(F)ccc2F)CC1	0.1%	0.0%	12	0.0	37%[activator]	2.3	-6
CCc1nn(C(CC)C(=O)NCc2ccc(F)cc2)c(=O)c2cc3occc3n12 (centres undefined)	0.6%	-5.1%	.	0.6	.	.	-19
COc1ccc(CCNC(=O)CCc2cn(Cc3ccccc3Cl)c3ccccc23)c(OC)c1	1.1%	-16%	.	2.0	.	.	30

All compounds of this part, from the start:
SMILES	PINK1 expr mod	ClpP mod	TRPV1 potentiator	TRPML1 agonist	Sfp inh	Menin-MLL FL inh	TRPML1 blocker
CC(=O)Nc1ccc(C2=CC(=O)CC(C)(C)C2)cc1	-0.3%	-26%	2	0.1	.	.	2
CCOC(=O)c1c(NC(=O)C2(C)Cc3ccccc3C(=O)O2)sc2c1CCCC2 (centres undefined)	3.0%	?	9	0.1	35µM*	-3.4	-10
O=C(NCc1ccccc1)NC1(C(=O)Nc2ccc3c(c2)OCCO3)CCCCC1	-1.8%[38.3 µM]	-2.0%	7	-0.3	6%	-6.5	0
Cc1ccc(C(=O)Oc2ccccc2N2CCOCC2)cc1	2.5%	0.4%	17	-0.2	6%	0.7	17
Cc1ccc(-c2noc(CSc3nnc(Cc4cccs4)n3-c3ccccc3)n2)cc1	15%	-0.1%	16	1.0	-5%	-1.8	0
FC(F)Oc1ccc(/C=N/n2c(Cc3ccc(Br)cc3)n[nH]c2=S)cc1	2.5%	.	-3	0.9	18µM*	-0.6	18
CC(=O)Oc1ccc(/C=C2\C=C(c3ccc(C)cc3)OC2=O)cc1	-3.0%	.	13	0.3	20%	4.5	34
O=C(Nc1cc(S(=O)(=O)N2CCCCC2)ccc1Cl)c1ccncc1	-0.3%	0.3%	-8	-0.2	.	.	-2
Cc1ccc(-c2noc(CNS(=O)(=O)c3ccc(F)cc3)n2)cc1	6.4%	1.5%	.	0.2	.	.	18
O=C(CSc1n[nH]c(-c2ccccc2)n1)N1CCOCC1	1.5%	.	3	0.0	2%	-0.2	-1
O=C(Cc1c(C(=O)O)[nH]c2ccc(Cl)cc12)Nc1ccc2c(c1)OCCO2	8.2%	-3.1%	?	-1.4	15%	1.3	-6
O=S(=O)(c1ccc(F)cc1)N1CCN(S(=O)(=O)c2cc(F)ccc2F)CC1	0.1%	0.0%	12	0.0	37%[activator]	2.3	-6
CCc1nn(C(CC)C(=O)NCc2ccc(F)cc2)c(=O)c2cc3occc3n12 (centres undefined)	0.6%	-5.1%	.	0.6	.	.	-19
COc1ccc(CCNC(=O)CCc2cn(Cc3ccccc3Cl)c3ccccc23)c(OC)c1	1.1%	-16%	.	2.0	.	.	30
O=C(Cc1ccccc1)c1c[nH]c(C(=O)O)c1	-1.0%	.	-10	1.1	12%	-4.7	6
Nc1nc(-c2cccnc2)nn1C(=O)c1ccc(Cl)cc1	1.0%	-3.9%	6	0.1	18%	-1.8	43
CCCNC(=O)c1ccccc1NC(=O)C1COc2ccccc2O1 (centres undefined)	2.3%	-0.5%	-16	-0.8	14%	2.5	-11
CCC(C)Sc1nc2c(c(=O)[nH]c(=O)n2C)n1CC(O)COc1cccc2ccccc12 (centres undefined)	13%	-4.6%	8	1.6	?	-2.4	13
CC(=O)NC1CC(=O)N(c2ccc3c(c2)OCCO3)C1 (centres undefined)	-0.5%	0.8%	.	0.1	.	.	-12
C=C1CCN([C@@H](CC(C)C)C(=O)N2CCCC2)S(=O)(=O)c2ccccc21	0.8%	-6.6%	.	-0.7	.	.	-3
CCC1SC(=NC(=O)c2ccc(Cl)c(Cl)c2)NC1=O (centres undefined)	7.5%	1.9%	1	1.7	1%	0.2	-18
Cc1csc(N2CCc3ccccc32)n1	-1.9%	-0.6%	2	6.0	1%	-0.8	11
CCc1ccccc1N(CC)C(=O)C(=O)Nc1ccc2nc3n(c(=O)c2c1)CCCCC3	1.2%	-1.1%	.	5.6	.	.	-8
Cc1ccc2[nH]c(O)c(N=NC(=O)C3CC3c3ccccc3)c2c1Br (centres undefined)	-1.1%	-1.4%	?	-0.6	9%	-0.2	1
COc1ccc(C(=O)Nc2ccnn2C2CCN(C(=O)c3cnsn3)CC2)cc1	-2.1%	0.8%	11	0.0	21%	3.1	21
CCC(CC)C(=O)c1c[nH]c(C(=O)N2CCN(c3ccccc3)CC2)c1	-2.1%	-0.4%	-22	-1.6	-8%	1.1	-7
Cc1ccc(C2C(C#N)=C(N)N(c3ncn[nH]3)C3=C2C(=O)CC(C)(C)C3)cc1 (centres undefined)	0.4%	2.0%	5	-0.1	-4%	8.4	0
Cc1cccc(OCC(=O)NCCCNC(=O)c2ccccn2)c1	0.6%	.	1	1.2	24%	0.4	-1
COc1ccc(NC(=O)CN(C)C(=O)CCNC(=O)c2ccccc2OC)cc1	-0.9%	-0.4%	-15	0.8	.	.	2
O=C(c1ccc(CSc2nc3ccncc3n2Cc2ccccc2)cc1)N1CCCCCC1	0.8%	-3.5%	.	-1.0	.	.	-2
CCOC(=O)C1(Cc2cccc(OC)c2)CCCN(C(=O)c2cc(C)[nH]n2)C1 (centres undefined)	2.1%	.	4	-1.1	12%	5.0	1
Cc1cc(OCC(=O)NNC(=O)c2ccncc2)ccc1C(C)C	0.9%	4µM*	-17	0.3	.	.	32
COc1ccccc1C(=O)NCCC(=O)N(C)CC(=O)Nc1ccc(N2CCOCC2)cc1	0.9%	-1.6%	-3	-0.4	.	.	-5
Cc1ccccc1N(C(=O)c1snc(C(N)=O)c1N)C(C)C(=O)NC1CCCCC1 (centres undefined)	1.2%	.	8	1.1	9%	9.1	-11
CCOC(=O)c1sc(NC(=O)c2cccc(S(=O)(=O)N(CC)CC)c2)cc1C	17%[38.3 µM]	-9.4%	-2	0.8	13%	-0.7	21
Cc1cc(Nc2cccc(F)c2)nc(N2CCOCC2)n1	1.3%	-2.2%	-16	-0.8	-13%	-0.9	6
O=C(NC1CCCC1)C1c2ccccc2OCC(=O)N1Cc1ccco1 (centres undefined)	-0.8%	1.1%	.	-0.7	.	.	.
CC(Sc1n[nH]c(N)n1)C(=O)C12CC3CC(CC(C3)C1)C2 (centres undefined)	-1.4%	-1.9%	0	0.4	7%	0.2	-4
COc1cc(OC)c(C2Nc3cccc4cccc(c34)N2)c(OC)c1	0.0%	3.7%	17	0.4	-17%	0.2	7
COc1ccccc1C1CCN(Cc2ccccc2)CC1	8.6%	0.8%	8	-0.3	-3%	-1.3	23
CC1OC(=O)c2cc3ccccc3nc21 (centres undefined)	-1.0%	-26%	.	0.1	.	.	21
O=c1ccc(/C=C/c2ccccc2)nn1Cc1ccccc1Cl	24%	?	-5	3.3	-17%	0.6	26
COc1ccc(-n2c(SCC(=O)Nc3cc(C)on3)nc3ccc(O)cc3c2=O)cc1OC	2.7%	-26%	-11	0.5	2%	-2.5	0
Cc1ccc(CNC(=O)c2ccc(N3CCCC3)c(NC(=O)Nc3ccc(F)c(Cl)c3)c2)cc1	2.1%	?	.	-0.3	.	.	-16
CCN(CC(=O)Nc1c(F)cccc1F)C(=O)c1cccc(S(=O)(=O)NCc2ccccc2)c1	1.7%	-4.0%	13	-0.1	.	.	17
COc1ccc(C(=O)NCc2nnc(SCC(=O)Nc3nnc(C)s3)o2)cc1	-1.2%	-3.7%	5	0.1	?	13	8
CCN(CC)C(=O)COc1cccc2ccccc12	1.6%	0.9%	1	1.8	10%	-0.9	?
CN(C)CC1(C)Cc2ccsc2C1O (centres undefined)	0.9%	0.6%	.	-0.5	.	.	8
Cc1cccc(-c2nnc3n(CCc4ccccc4)c(=O)c4ccccc4n23)c1	-1.6%	-2.3%	.	-0.2	.	.	-10
CCCCNC(=O)C1(C)CCCCN1C(=O)c1c(C)noc1C (centres undefined)	-0.4%	1.2%	.	-0.1	.	.	.
Cc1ccc2c(c1)N(CCC(=O)NCC1COc3ccccc3O1)C(=O)CO2 (centres undefined)	0.5%	-1.9%	-4	0.4	-4%	4.9	-11
COC(=O)c1ccc2c(=O)n(CCN3CCOCC3)c(SCC(=O)Nc3ccccc3OC)nc2c1	1.4%	-2.7%	.	-0.7	.	.	-2
CCCCCCCSc1nnc(N)s1	0.0%	.	-3	2.8	18%	-1.3	16
O=C(Nc1nccs1)c1ccc(-c2ccc(Cl)cc2Cl)o1	0.8%	-0.8%	-9	0.7	3%	11	-9
